TRPV1 PAM: enhances activation of the human vanilloid receptor TRPV1 | Q8NER1 | TRPV1-expressing cells, Fluo-8 calcium influx, capsaicin EC20 potentiation; host cell line not named in the record; control for the full effect not named in the record | potentiation, % at 8.33 µM | hit rate 0.02% among 320,000 | AID 540277; active means potentiation above 80%; inconclusive means 30% to 80%; inactive means below 30%; further: 0% is about no effect
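Fluo-8 calcium influx in TRPV1-expressing cells, kinetic read (ex 480/em 520 nm). Compound added and read 3 min for agonist activity, followed by capsaicin at EC20 final and 2 min further read for enhancement.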
ClpP mod: qHTS Assay for Activators of ClpP; purified B. subtilis ClpP, FRET peptide cleavage, 20 min; Potency, µM (top dose mostly 57.5 µM), without a hit: at the highest dose activity change, negative = active; hit rate 1.9% among 340,000; AID 651965, 2013; ATP-dependent Clp protease proteolytic subunit (Bacillus subtilis (strain 168)), P80244; active = well fitted falling curve with a large enough effect; inconclusive = small, poorly fitted or top-dose-only effect; inactive = no such curve, though single readings can be large or run the other way; further: potency means the concentration at half of the fitted maximal effect; the source files actives as falling curves though it sought activators and does not explain the sign; nearly all actives have a fitted effect of over 65% in size; many hits overshoot -100%
Target sequence (P80244 whole entry, looked up): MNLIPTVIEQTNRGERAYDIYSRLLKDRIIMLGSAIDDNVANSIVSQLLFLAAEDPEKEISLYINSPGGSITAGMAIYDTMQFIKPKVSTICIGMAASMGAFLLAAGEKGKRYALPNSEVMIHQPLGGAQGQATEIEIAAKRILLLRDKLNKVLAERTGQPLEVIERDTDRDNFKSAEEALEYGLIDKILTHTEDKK
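FRET quenching reversal measured ClpP activation: 10 microg/mL B. subtilis ClpP at pH 8 with the FRET-FV decapeptide, read at 430 nm after 320 nm excitation. The 20-min minus 0-min signal was scaled between DMSO/no-enzyme wells and ADEP (5.8 microM final).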
TRPML1 ag: human mucolipin-1 channel agonism. TRPML1-expressing cells, Ca2+ dye fluorescence, FDSS; host cell line not named in the record; reference of the full effect not given here. activation, % (no concentration beside the values). hit rate 0.12% among 410,000; in the data active = activation above about 50%; inconclusive = about 30% to 50%; inactive = below about 30%; further: 0% is about no effect; the text of the record puts the active cut at 80%
Target sequence (Q9GZU1 whole entry, looked up): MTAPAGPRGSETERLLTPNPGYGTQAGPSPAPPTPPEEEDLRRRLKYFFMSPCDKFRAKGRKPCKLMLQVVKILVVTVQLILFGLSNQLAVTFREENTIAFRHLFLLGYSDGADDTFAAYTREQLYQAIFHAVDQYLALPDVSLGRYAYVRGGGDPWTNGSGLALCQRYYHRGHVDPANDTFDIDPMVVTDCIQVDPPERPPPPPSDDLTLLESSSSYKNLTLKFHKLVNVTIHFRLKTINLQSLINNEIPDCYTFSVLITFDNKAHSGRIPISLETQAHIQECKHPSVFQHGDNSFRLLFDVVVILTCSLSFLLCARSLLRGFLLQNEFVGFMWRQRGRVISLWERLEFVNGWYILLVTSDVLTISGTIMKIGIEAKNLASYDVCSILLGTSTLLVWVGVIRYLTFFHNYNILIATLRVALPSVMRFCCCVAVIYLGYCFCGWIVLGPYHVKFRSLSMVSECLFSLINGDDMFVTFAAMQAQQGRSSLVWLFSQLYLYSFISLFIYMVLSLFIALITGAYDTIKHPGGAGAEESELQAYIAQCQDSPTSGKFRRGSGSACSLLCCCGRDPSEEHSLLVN
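Agonist activity was taken from a 110 s kinetic Ca2+ dye read on the FDSS after pinning compounds onto TRPML1-DL cells. The cells were seeded at 1,500/well with Tet inducer, incubated about 16 h, then dye-loaded at room temperature.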
PINK1 modulator: changes PINK1 expression | AID 624263 | hit rate 0.2% among 410,000 | PINK1 immunofluorescence, high-content cytometry, 24 h | Potency, µM (titrated, usually from 76.6 µM), without a hit: at the highest dose activation (PINK1 increase), actives largely listed as activators; active = well fitted activation curve with a large enough effect; inconclusive = small, poorly fitted or top-dose-only effect; inactive = flat fitted curve, though single readings scatter; cell line not stated here;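 further: potency means the concentration at half of the fitted maximal effect; % of control where 0% means no effect; nearly all actives have a fitted effect of over 65% in size; a mitochondrial uncoupler was the plate control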
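PINK1 protein, normally rapidly degraded, was detected by immunofluorescence after 24 hour compound treatment of a stable cell line. Titration data (5 concentrations) came from laser-scanning cytometry, with CCCP-treated wells as controls.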
TRPML1 inh: inhibitors of human TRPML1 channel; Q9GZU1; activity change, negative = inhibition, % (test concentration not listed); TRPML1-inducible cells, Ca2+ dye fluorescence, FDSS; stronger effect = lower value; inhibition of EC80 agonist-evoked calcium signal; AID 624415; hit rate 0.02% among 390,000; in the data active means activity change below about -50%; inconclusive means about -30% to -50%; inactive means above about -30%;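 further: stimulus is agonist 54-4 at its EC80 concentration; on the % scale 0 is the no-effect control and ±100 the full control effect; compound concentration not given in the record; the text of the record puts the active cut at -80%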
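TRPML1-DL cells, Tet-induced overnight (~16 h, 37 °C) at 1,500 cells/well, were loaded with Ca8 no-wash dye plus quencher for 45-90 min at room temperature. Compounds were pinned during FDSS kinetic reading; agonist 54-4 at EC80 (4 uM final) then added.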
Sfp inh: Sfp phosphopantetheinyl transferase inhibition. Biochemical Sfp PPTase activity, qHTS. Potency, µM, inactives show max response, negative = inhibition, actives largely listed as inhibitors. hit rate 3.5% among 310,000. AID 1490; active means well fitted inhibition curve with a large enough effect; inconclusive means small, poorly fitted or top-dose-only effect, or another doubt; inactive means no such curve, though single readings can be large or run the other way;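 further: the enzyme is Sfp with the accession as filed and its product quenches rhodamine fluorescence; potency means the concentration at half of the fitted maximal effect; 0% = enzyme reaction without inhibitor and -100% = no enzyme wells; top concentration of the series not given in the record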
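After 15 min at room temperature with compound, 15 nM Sfp received 5 uM rhodamine-CoA plus 12.5 uM BHQ-2-ybbR (50 mM Hepes pH 7.6, 10 mM MgCl2). Rate came from the fluorescence difference over 30 min, ex 525/em 598 nm.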
Menin MLL FP FL: menin-MLL binding inhibition, fluorescein peptide. 290,000 tested, under 10 active. AID 1766. FP activity change, % at 61.4 µM. Fluorescence polarization, fluorescein-MLL peptide displacement from menin; inconclusive = falling polarisation curve, or a change in total fluorescence; inactive = total fluorescence flat and polarisation flat or rising; no compound was filed as active; the % refers to the polarisation; negative = inhibition;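 further: % of control where 0% means no effect; inhibitors lower the polarisation; unlabelled MLL peptide was the positive control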
* marks the source's active call; other numbers are inactive results; ? = inconclusive; . = not tested or not shown; & = joins results of further samples; [ ] = remark or other dose. Rows were taken by chance (roughly 4.4% active in at least one column).

compound,TRPV1 PAM,ClpP mod,TRPML1 ag,PINK1 modulator,TRPML1 inh,Sfp inh,Menin MLL FP FL
O=C(NC(=S)Nc1cccc([N+](=O)[O-])c1)c1ccccc1,-16,2.0%,0.8,4.7%,7,45µM*,-1.7
O=C(CNCCCO)Nc1cc(C(F)(F)F)cc(NC(=O)CNCCCO)c1Cl,-10,1.2%,-0.1,0.6%,-4,5%,3.9
CC(C)C(=O)NC(NC(=O)C(C)C)c1ccc([N+](=O)[O-])cc1,-1,-3.4%,-0.3,0.3%,-8,-8%,7.3
COc1ccc(Cl)cc1NC(=O)C(C)Sc1nncn1C (stereo not drawn),1,-0.5%,1.7,1.1%,-7,14%,1.9
COCC(=O)N1CCC2(CCCN(Cc3nccs3)C2)CC1,.,.,.,0.3%,.,1%,-1.0
CC1(C)CC(=O)C=C(c2ccc(F)cc2OCc2ccccc2)C1,-13,-2.0%,0.8,26%,-10,.,.
O=C(COc1ccc(F)cc1)Nc1cc(Cl)ccc1-n1cncn1,2,?,0.0,-1.3%,12,.,.
CC(=O)NC1(c2cccc(F)c2)CCN(C(=O)Nc2ccc(C#N)cc2)CC1,-8,1.7%,-0.4,1.2%,10,8%,4.4
Cc1cc(C(=O)Nc2cc(C(F)(F)F)ccc2N2CCOCC2)no1,-14,1.3%,1.3,-0.9%,8,7%,.
COC(=O)c1ccc(NCC(=O)c2ccccc2)cc1,16,-2.3%,-0.4,1.2%,14,11%,-0.5
CCCCCCN(C(=O)CCCCCN1C(=O)NC(c2ccc(Cl)cc2)C(C(=O)OCc2ccccc2)=C1C)C(C(=O)NCCCC)c1ccc(OCC(=O)OC)c(C(=O)OC)c1 (stereo not drawn),9,.,.,.,.,26%&18%,-1.8&0.8
CCCCn1c(N)c(N(CCOC)C(=O)c2cccc(S(=O)(=O)N(CC)c3ccccc3)c2)c(=O)[nH]c1=O,6,-14%,-0.8,-1.3%,-14,.,.
COCCN1C(=O)c2oc3cc(C)c(C)cc3c(=O)c2C1c1ccc(O)cc1 (stereo not drawn),.,-2.3%,0.7,-1.4%,-10,.,.
CC(=O)NC(c1ccccc1)c1nc(-c2cncnc2)cs1 (stereo not drawn),.,-2.6%,-0.6,-0.4%,.,.,.
Cc1sc2nc(CSCC(=O)NC3CCCCC3)[nH]c(=O)c2c1C,-12,-5.7%,2.9,2.1%,4,.,.
COc1ccc2nc(N(Cc3cccnc3)C(C)=O)sc2c1,.,-0.1%,0.1,-14%,19,.,.
CC1=CC(=O)C=CC1=Nc1ccc(N(C)C)cc1,.,0.2%,-1.1,-1.2%,.,.,.
COc1ccc(Cl)cc1NC(=O)CSc1nc2sccc2c(=O)[nH]1,11,.,-0.4,5.8%,-9,?,20
CCN(CC(=O)Nc1c(F)cccc1F)C(=O)CCCSc1nc2ccccc2[nH]1,.,-1.5%,-0.7,0.3%,86,.,.
CS(=O)(=O)N1CCc2cc(-c3csc(NCC4CCCO4)n3)ccc21 (stereo not drawn),9,2.9%,-0.1,.,-4,50µM*,2.7
Cc1cc2nn(-c3ccc(F)cc3)nc2cc1NC(=O)c1cc(Cl)ccc1Cl,.,-11%,0.5,-1.3%,-4,.,.
Cc1ccc(NC(=O)NC2CCCCC2)cc1Cl,-20,0.9%,0.5,-7.2%[38.3 µM],-5,22%,2.5
COc1ccc(OC)c(NC(=O)C2CCN(S(=O)(=O)c3ccc4c(c3)OCCO4)CC2)c1,6,-0.2%,-0.5,-1.2%,-1,.,.
O=C(c1ccco1)N1CCN(Cc2cc(=O)c(OCc3ccc([N+](=O)[O-])cc3)co2)CC1,-11,-4.2%,0.5,-1.4%,3,.,.
CCCCCn1c(CNC(=O)c2ccccc2)nc2ccccc21,.,1.4%,0.0,5.3%,5,.,.
Cc1ccc(NC(=O)CCNS(=O)(=O)c2ccc3c(c2)c(=O)n(C)c(=O)n3C)cc1C,13,-0.1%,-0.3,-0.3%,-8,20%,-1.1
CCOC(=O)/C(C#N)=C1/C=CN(C)C=N1,-9,0.7%,-0.6,-0.2%,-19,6%,7.4
CC(COc1cccc2ccccc12)CN1CCN(C)CC1 (stereo not drawn),-11,-12%,0.4,-2.0%[38.3 µM],5,7%,-0.1
O=C(NCc1ccccc1Cl)C1CCCN1C(=O)NC1CCCCC1 (stereo not drawn),?,-1.8%,-0.2,-0.4%,4,33%[activator],-0.9
CCOc1cnc(-c2ccc(Cl)cc2)o1,24,?,1.1,10%,-16,17%,1.5
O=C(CCNS(=O)(=O)c1cccc2nsnc12)NCc1ccccc1,1,1.0%,-0.7&-0.6,-1.4%&0.3%,6&-13,20%,-0.1
CCCSCCCNC(=O)CN1C(=O)CCn2nc(-c3cn(C)c4ccccc34)cc21,.,-6.6%,0.4,1.1%,-24,.,.
O=[N+]([O-])c1ccc(OCCO)c(P(=O)(c2ccccc2)c2ccccc2)c1,-1,.,0.9,1.3%,-7,8%,-0.5
COC(=O)CSc1nc(N)c(C#N)c(-c2ccco2)c1C#N,3,-0.2%,1.1,6.5%,9,-29%,12
C=C(C)c1nc(Oc2ccccc2)nc(Oc2ccccc2)n1,.,-2.4%,1.1,-7.2%,1,.,.
COc1cccc(OC)c1C(=O)Nc1ccc([N+](=O)[O-])cn1,-10,-1.5%,0.0,4.8%,-5,-6%,1.3
COc1ccc(N2C(=O)CC(N(Cc3ccco3)C(=O)CCC(=O)O)C2=O)cc1 (stereo not drawn),8,1.4%,0.7,-0.3%,15,-5%,-2.7
O=C(N/C(=C\c1cn(-c2ccccc2)nc1-c1ccc(Cl)cc1)C(=O)N1CCOCC1)c1ccccc1,3,.,.,.,.,13%,-2.3
Cc1ccccc1CSc1ncc(C#N)c(N)n1,4,-15%,0.5,3.4%,-1,-1%,9.7
N#Cc1ccccc1Sc1ccccc1C(=O)Nc1ccc(Br)cc1,3,-23%,-0.1,-1.1%,21,15%,1.1
Cc1ccc([N+](=O)[O-])cc1NC(=S)NC(=O)c1cccnc1,0,.,-0.7,5.8%,-8,?,-0.8
COc1cc(NS(=O)(=O)c2cc3c(cc2C)NC(=O)CO3)cc(OC)c1,2,0.5%,-0.7,2.1%,-15,-1%,7.5
COc1cc(Cl)c(C)cc1NC(=O)CC1Oc2ccccc2NC1=O (stereo not drawn),.,-1.5%,0.6,1.7%,-5,.,.
c1ccc2cc(-c3csnn3)ccc2c1,1,-1.7%,2.6,-0.4%,-1,-5%,5.3
CC1(C)O[C@@H]2[C@H](O1)[C@@H](CO)O[C@H]2n1cnc2c(=O)[nH]cnc21,-5,0.9%,-0.5,0.2%,-4,.,.
CC(=O)Nc1ccc(NC(=O)CN(C)S(=O)(=O)c2ccc3ccccc3c2)cc1,-7,-1.4%,-0.4,16%,-2,-1%,.
Cc1sc2ncnc(NS(=O)(=O)c3ccc(Cl)cc3)c2c1C,.,-2.3%,-0.3,3.4%,-1,.,.
COc1ccccc1/C=N/Nc1nc(C)cc(C)n1,-8,.,0.2,0.2%,10,-5%,-9.4
CCN(CC)CCn1c(=N)n(CC(O)COc2cccc(C)c2)c2ccccc21 (stereo not drawn),6,.,-0.8,1.1%,10,?,-11
COC(=O)c1ccc2c(c1)sc(=NC(=O)CCS(=O)(=O)c1ccccc1)n2C,16,-11%,0.9,-4.5%,3,.,.
Cc1cc(C)n(CC(=O)Nc2ccc([N+](=O)[O-])cc2)n1,11,0.0%,3.4,3.3%,-2,7%,1.6
O=C(CCCCCN1C(=O)c2cccc([N+](=O)[O-])c2C1=O)Nc1ccccc1F,13,0.2%,.,0.0%,.,5%,-0.8
CCOc1ccc(CC(=O)N/N=C/c2cccnc2)cc1OCC,3,-0.2%,-0.1,0.3%,-3,19%,.
CC1CN(C(=O)CS(=O)(=O)Cc2ccccc2)CC(C)O1 (stereo not drawn),2,.,0.7,0.2%,7,3%,.
CCCCOc1ccc(/C=C/C(=O)OCC(=O)NC2CCS(=O)(=O)C2)cc1OCC (stereo not drawn),5,1.0%,0.4,2.2%,-3,.,.
O=[N+]([O-])c1cccc(C(=S)N2CCCC2)c1,7,.,-0.3,-2.7%,-16,15%,1.4
Cc1c(C(=O)N(C)Cc2nc3ccccc3c(=O)[nH]2)oc2ccccc12,.,-1.5%,0.9,11%,5,.,.
Cc1ccc(S(=O)(=O)Nc2cc(C)cn(Cc3ccccc3)c2=O)cc1,-2,.,0.5,-1.2%,8,0%,22
CCOc1ccc(S(=O)(=O)NCC(c2ccco2)S(=O)(=O)c2ccc(C)cc2)cc1 (stereo not drawn),.,1.5%,3.3,-0.6%,1,.,.
COC(=O)c1ccc(NC(=O)c2ccccc2CC[N+](=O)[O-])cc1,-6,.,0.6,-0.4%,-10,14%,-0.6

The listing continues:
compound,TRPV1 PAM,ClpP mod,TRPML1 ag,PINK1 modulator,TRPML1 inh,Sfp inh,Menin MLL FP FL
NC(=O)Cn1c(=O)n(CCCCCC(=O)NCc2ccc(F)cc2)c(=O)c2sccc21,.,-0.2%,1.3,0.2%,-9,.,.
CSCCC(NS(=O)(=O)c1ccccc1F)C(=O)NC(C)c1ccccc1 (stereo not drawn),6,.,1.7,0.2%,3,11%,-1.9
COc1cccc(NS(=O)(=O)c2ccc(OC)c(OC)c2)c1,-3,-0.3%,2.3,-0.7%[38.3 µM],-16,-1%,1.6
COc1cccc(OC)c1C(=O)Nc1cccc(-c2ccc3nncn3n2)c1,7,.,-1.0,4.3%,-7,13%,1.6
Cc1c(NC(=O)c2cnn3c(C(F)(F)F)cc(-c4ccco4)nc23)c(=O)n(-c2ccccc2)n1C,22,-0.9%,0.1,-1.9%,24,-17%,-0.3
